From PubChem BioAssay
LANA-H2A inh: blocks KSHV LANA binding to histone H2A/H2B | inhibition, % (concentration not given with the values) | cell-free LANA-H2A/H2B peptide, fluorescence polarization | AID 2629 | Q9QR71 | 0.6% of 320,000 active; in the data active = inhibition mostly above about 10%, no sharp cut-off; inactive = mostly below about 6.7%;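 note: stock transfer was 7.5 nL into about 10 µL; 0% = median of vehicle wells and 100% = median of positive control wells; one replicate is shown; the record names a cut of 25% in any replicate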
B2AR ag: human beta-2 adrenergic receptor agonism by FAP. P07550. Am2.2-beta2AR cells, FAP receptor internalization, flow cytometry; reference of the scale not given here. response, % (no concentration beside the values). 0.43% of 340,000 active;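 active = response above a set limit, near 3 SD of response in nonfluorescent compounds, cut at about 42% in these data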;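 note: stock transfer was 100 nL into about 11 µL; a reference agonist was the positive control; negative values mostly stem from fluorescent compounds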
Target sequence (P07550 whole entry, looked up): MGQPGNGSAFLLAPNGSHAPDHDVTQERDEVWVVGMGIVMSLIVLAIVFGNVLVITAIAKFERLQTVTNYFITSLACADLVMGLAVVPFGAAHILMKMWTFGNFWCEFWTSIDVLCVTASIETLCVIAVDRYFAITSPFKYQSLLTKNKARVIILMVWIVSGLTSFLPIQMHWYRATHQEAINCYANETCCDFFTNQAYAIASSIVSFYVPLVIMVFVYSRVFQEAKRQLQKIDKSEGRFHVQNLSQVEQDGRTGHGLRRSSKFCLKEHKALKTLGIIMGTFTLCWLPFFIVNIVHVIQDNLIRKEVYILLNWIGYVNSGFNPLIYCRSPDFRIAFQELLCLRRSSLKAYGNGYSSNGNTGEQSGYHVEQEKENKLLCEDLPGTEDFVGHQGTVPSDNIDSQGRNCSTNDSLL
ALR inh: human ALR oxidase inhibition via reduced H2O2 | inhibition, % (concentration not given with the values) | P55789 | AID 485317 | 3.8% of 290,000 active | purified ALR, DTT oxidation, H2O2 HRP-luminol luminescence;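 active = mean and each replicate at 75% or more; inconclusive = only one of the two met; inactive = neither met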;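 note: stock transfer was 7.5 nL into about 7.5 µL; 0% = neutral wells and 100% = wells with inactivated enzyme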
HNF4A DNA FP: change in binding of human HNF4 alpha to DNA; P41235; 0.3% of 360,000 active; HNF4a-FITC DNA binding, fluorescence polarization, 1 h; activity change, % at 10 µM; in the data active = activity change above about 30%, passing the limit was not always enough;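 note: controls were the assay level and a saturating level of protein; the project sought stronger binding though the title names inhibitors; some compounds called inactive have numbers as strong as hits; positive values seem to mean higher polarization but the record does not say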
Target sequence (P41235 whole entry, looked up): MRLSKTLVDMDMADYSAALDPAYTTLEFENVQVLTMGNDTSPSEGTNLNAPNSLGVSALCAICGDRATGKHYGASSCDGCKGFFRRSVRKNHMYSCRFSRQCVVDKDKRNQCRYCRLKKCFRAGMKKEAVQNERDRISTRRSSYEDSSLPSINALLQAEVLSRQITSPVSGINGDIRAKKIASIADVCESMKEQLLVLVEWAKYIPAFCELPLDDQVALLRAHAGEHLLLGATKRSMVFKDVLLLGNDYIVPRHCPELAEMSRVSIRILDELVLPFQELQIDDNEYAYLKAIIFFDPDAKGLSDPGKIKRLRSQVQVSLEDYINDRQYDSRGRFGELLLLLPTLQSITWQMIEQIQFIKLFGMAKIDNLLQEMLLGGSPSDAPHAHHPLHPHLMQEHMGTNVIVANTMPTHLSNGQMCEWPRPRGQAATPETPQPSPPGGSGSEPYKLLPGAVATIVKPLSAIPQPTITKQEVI
Vif A3G: HIV-1 Vif–A3G interaction blockers – biochemical, TR-FRET, GST-Vif 1-94, biotin-A3G peptide, dose response retest, primary screen (AID 1117319); 0.57% of 260,000 active; one-dose inhibition, %; IC50 in µM for titrated hits; TR-FRET GST-Vif / biotin-A3G peptide binding; higher % means a stronger effect; test concentration not given here; strong numbers were not always called active;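 active = above the screen mean plus three standard deviations and confirmed in dose response; inconclusive = results disagree or hit not tested in dose response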;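 note: Vif residues 1-94 fused to GST binding biotinylated APOBEC3G peptide 110-148; 0% = full assay without inhibitor and 100% = GST in place of GST-Vif; retest series ran down from 100 µM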
RanGTP-Impb inh: disruptors of Ran-importin-beta complex formation – biochemical, FRET, CFP-Ran, YFP-importin-beta, homogeneous, primary screen. 1.1% of 300,000 active. AID 2216. cell-free CFP-Ran/YFP-importin-beta FRET ratio. inhibition, % (no concentration beside the values);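 active = most replicates above 15%; inconclusive = exactly half above 15%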;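 note: 0% = DMSO wells and 100% = Ran loaded with GDP instead of GTP; wells of about 40 µL received 100 nL stock; the first replicate is given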
Calb FLC: C. albicans growth modulation with fluconazole. C. albicans CaCi-2 (fluconazole-resistant clinical isolate) + fluconazole, Alamar Blue growth, 48 h. growth inhibition, % (test concentration not listed). 0.57% of 300,000 active;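 active = most replicates above 75%; inconclusive = exactly half above 75%; inactive = most below 75%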;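 note: all wells also contain fluconazole at 8 µg/ml as a sub-toxic cotreatment; 0% = median of DMSO wells and 100% = median of geldanamycin control wells; wells of about 8 µL received 7.5 nL stock; the first replicate is given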
* hit, by the source's call; ? = inconclusive; nt = no result given; & = joins results of further samples.

1	COC(=O)c1[nH]c2cc(C)ccc2c1NC(=O)CN1CCCc2ccccc21
2	CC(NC(=O)c1ccc(S(=O)(=O)NCc2ccco2)cc1)c1ccc(F)cc1 (stereo not given)
3	COc1ccc(NC(=O)CC2C(=O)N(c3ccc(OC)cc3)C(=O)N2CCN2CCN(C)CC2)cc1 (stereo not given)
4	CC(C)C1Nc2c(C(=O)O)cccc2C(Nc2ccccc2C(=O)O)C1(C)C (stereo not given)
5	O=C(Nc1ccccc1C(F)(F)F)c1cc(-c2cccc(O)c2)on1
6	CCCS(=O)(=O)Nc1c(C(=O)O)[nH]c2ccccc12
7	CCOC(=O)C1CCN(C(=O)COc2ccc(Cl)cc2Cl)CC1
8	CCOC(=O)Cn1nc(C)c(NC(=O)CCc2ccccc2)c1C
Assay by compound	1	2	3	4	5	6	7	8
LANA-H2A inh	-0.2	1.1	-4.8	6.7	-8.4	-2.0	-7.2	0.8
B2AR ag	5	2	-5	18	-2	-6	3	1
ALR inh	0	-2	-4	20	-6	?	-8	1
HNF4A DNA FP	1.7	1.2	6.7	7.9	-3.3	4.0	-0.9	-0.4
Vif A3G	5%	17%	2%	nt	-4%	-1%	-2%	8%
RanGTP-Impb inh	-5.0	nt	-3.7	3.4	0.3	3.0	3.5	2.2
Calb FLC	44	nt	-3	4	-1	-2	21	4

9	COc1ccc(C(CNS(=O)(=O)c2ccccc2)N2CCN(C)CC2)cc1 (stereo not given)
10	CCOC(=O)c1cc(CC)sc1NC(=O)c1ccc(N2C(=O)CCC2=O)cc1
11	COc1ccc(/C=N/Nc2nnc(C)n2N)cc1OC
12	C=C(C(=O)Nc1ccccc1)c1ccc(C)cc1
13	COc1cc2c(cc1OC)CN(C(=O)Nc1ccccc1)CC2
14	CC(=O)c1cccc(OCC(O)CNCC2COc3ccccc3O2)c1 (stereo not given)
15	COCC(=O)NC1CCN(S(=O)(=O)c2ccc(C(=O)O)cc2)CC1
16	CCOc1ccc2nc(SC3CC(=O)N(c4ccc(OC)cc4)C3=O)sc2c1 (stereo not given)
Assay by compound	9	10	11	12	13	14	15	16
LANA-H2A inh	-6.7	-1.3	3.7	-5.3	-3.4	1.7	4.0	0.3
B2AR ag	-2	-2	1	-7	-1	-8	-4	10
ALR inh	nt	-12	-50	-3	nt	nt	-4	2
HNF4A DNA FP	-0.1	-2.2	0.8	-3.3	2.0	2.6	-1.6	-3.7
Vif A3G	4%	0%	nt	nt	nt	nt	12%	-2%
RanGTP-Impb inh	-1.6	-1.9	-0.3	-4.7	-4.1	3.9	4.0	?
Calb FLC	-5	-4	1	-5	-3	-1	14	3

17	COc1ccccc1C(=O)NC(=O)COC(=O)c1ncc(Cl)c(Cl)c1Cl
18	CCN1CCN(CC(=O)N2c3ccccc3CC2C)CC1 (stereo not given)
19	CCOC(=O)CN1C(=O)N(CC)C(C)=C(C(=O)OC)[C@@H]1c1ccccc1
20	COc1nc(-c2ccccc2)nc(C)c1CC(=O)O
21	COCCCNC(=O)c1cc2c(=O)n3cccc(C)c3nc2s1
22	Cc1ccc(NC2CCCCC2NS(=O)(=O)c2ccccc2)c(C)c1 (stereo not given)
23	CCc1nc2scc(-c3ccc(C)cc3)c2c(=O)n1N
24	Cc1ccc(/C=N/n2nnnc2N)o1
Assay by compound	17	18	19	20	21	22	23	24
LANA-H2A inh	5.4	6.1	4.7	-0.5	-1.9	4.1	-5.5	-1.8
B2AR ag	4	2	-5	7	-6	8	-1	0
ALR inh	12	5	-1	-3	-6	86*	2	-4
HNF4A DNA FP	-1.0	-1.8	1.5	-3.4	-1.6	2.3	0.2	5.1
Vif A3G	-11%	0%	0%	11%	-3%	-3%	nt	1%
RanGTP-Impb inh	-4.8	-2.3	5.1	-4.2	-6.4	-1.4	-13	-0.4
Calb FLC	-4	-25	1	3	1	-4	-3	21

25	C=CCN1C(=O)CSc2ccc(C(=O)NCc3ccc(F)cc3)cc21
26	CNC(=O)C(=O)NCC1CCCN1S(=O)(=O)c1cccs1 (stereo not given)
27	Cc1cc2c(c(SCC(=O)NCc3ccccc3Cl)n1)C(=O)OC2
28	Nc1ccc2oc3ncccc3c(=O)c2c1
29	Cc1ccc(-c2nc(C3CCCN(S(=O)(=O)c4ccc(C)cc4)C3)no2)cc1 (stereo not given)
30	CCCCCc1cc(=O)[nH]c(=S)[nH]1
31	O=S(=O)(N/N=C/c1ccccc1F)c1ccccc1
32	Cc1cccc(Nc2nc(N)nc(CC(=O)CSc3ccc(Cl)cc3)n2)c1
Assay by compound	25	26	27	28	29	30	31	32
LANA-H2A inh	2.5	2.2	-7.0	-1.6	5.3	1.3	1.1	nt
B2AR ag	-3	-2	-1	-11	2	3	7	nt
ALR inh	-3	-2	0	-10	-7	14	-2	nt
HNF4A DNA FP	-0.9	-2.2	1.9	1.6	4.0	-1.1	-1.0	nt
Vif A3G	0%	-1%	7%	-1%	7%	10%	5%	?
RanGTP-Impb inh	-3.3	-5.6	?	4.1	1.4	-0.1	1.2	4.7
Calb FLC	-4	-2	-7	5	1	-3	21	6

33	COc1cc(CNCCO)ccc1OCC(=O)Nc1ccc(Br)cc1
34	COc1ccccc1NS(=O)(=O)c1cc(NC(=O)c2ccncc2)ccc1N1CCCC1
35	Cn1cnnc1SCC(=O)Nc1ccc(N2CCOCC2)cc1
36	O=C(c1ccco1)N1CCN(C(=O)c2ccccc2[N+](=O)[O-])CC1
37	NC1=NC(c2cccc(O)c2)n2c(nc3ccccc32)N1 (stereo not given)
38	O=C(NCCN1C(=O)C2C3C=CC(C3)C2C1=O)N1CCCCC1 (stereo not given)
39	N#C/C(=C\c1cccs1)C(=O)Nc1ccccn1
40	CCOC(=O)N1CC=C2C(C#N)=C(N)C(C#N)(C#N)[C@H](c3ccc(OC(C)C)c(OCC)c3)[C@H]2C1
Assay by compound	33	34	35	36	37	38	39	40
LANA-H2A inh	-0.3	0.2	0.3	-0.1	-3.5	-3.7	1.7	7.5
B2AR ag	11	4	-1	-5	1	4	-20	12
ALR inh	32	-14	96*	-23	6	-7	8	35
HNF4A DNA FP	-1.2	-3.3	-2.6	-4.1	1.3	2.3	-1.4	11
Vif A3G	23%	4%	-2%	-2%	-3%	0%	3%	4%
RanGTP-Impb inh	1.1	-2.4	0.4	-2.7	3.7	1.7	26*	2.0
Calb FLC	-22	-8	8	-4	-3	-2	8	14

41	COc1cccc(NC(=O)CSc2nc(N)cc(N)n2)c1
42	CCOC(=O)CSc1nc(N)c(C#N)c(CC(C)C)c1C#N
43	CCC(C)(c1ccc(C(=O)OC)s1)c1ccc(C(=O)OC)s1
44	CC(C)C[C@H](NC(=O)N1CC(=O)Nc2ccccc21)C(=O)N[C@H](Cc1c[nH]c2ccccc12)C(=O)O
45	CC(C)OCCCNC(=O)CN1C(=O)c2cccc3cccc1c23
46	c1ccc2c(c1)CSc1sccc1C2=C1CCNCC1
47	COc1ccc(S(=O)(=O)N2CCCN(S(=O)(=O)c3ccc(OC)cc3C)CC2)c(C)c1
48	CCCCC(=O)Nc1nnc(S(=O)(=O)N2CCCCCC2)s1
Assay by compound	41	42	43	44	45	46	47	48
LANA-H2A inh	-0.3	-2.4	-1.0	1.5	-5.4	-3.9	3.5	-3.0
B2AR ag	-1	14	6	0	10	19	-3	-5
ALR inh	10	-3	5	-1	-33	-7	-19	0
HNF4A DNA FP	-4.8	-1.2	-1.9	2.1	0.5	1.8	-0.3	2.0
Vif A3G	4%	-63%	9%	nt	6%	-6%	4%&-11%	-7%
RanGTP-Impb inh	3.0	?	4.0	11	-1.6	-2.1	-2.2	2.3
Calb FLC	0	12	16	9	-34	-9	-8	-3

49	CN(C)/C=N/NC(=O)C1Cc2c(ccc3ccccc23)O1 (stereo not given)
50	O=c1c2c(-c3ccc([N+](=O)[O-])cc3)csc2nc2n1CCC2
51	O=C(Nc1ccc(Cl)c(C(F)(F)F)c1)NC1CC2CCCC(C1)N2Cc1ccccc1 (stereo not given)
52	CCCc1ccc(OCC(O)CN2CCN(C(=O)OCC)CC2)cc1 (stereo not given)
53	O=C1OC(Cc2ccccn2)C(=O)C1=C1SCCS1 (stereo not given)
54	Cc1onc(-c2ccccc2)c1C(=O)OCC(=O)N(C)c1ccccc1
55	Cc1ccc(-c2nn(-c3ccccc3)cc2C(=O)Nc2ccc(C)c(S(=O)(=O)N3CCOCC3)c2)cc1
56	O=C1NC(c2ccc(Br)cc2)=N/C1=C/c1ccco1
Assay by compound	49	50	51	52	53	54	55	56
LANA-H2A inh	-1.7	-0.4	1.6	-3.3	2.1	2.1	-5.0	6.3
B2AR ag	-6	-17	nt	-5	-2	-15	-33	-5
ALR inh	-10	-9	-4	nt	-4	-8	-11	-5
HNF4A DNA FP	-2.3	1.5	nt	-1.6	-0.5	0.3	-3.7	2.2
Vif A3G	-6%	-6%	-14%	0%	5%	0%	-11%	7.4µM*
RanGTP-Impb inh	-0.3	-3.3	4.4	0.5	5.5	nt	6.1	3.6
Calb FLC	4	-8	-25	3	29	nt	34	-4

57	COc1ccccc1CNC(=O)CNCCc1ccc(OC)c(OC)c1
58	COc1ccc(-c2ccc(SCC(=O)N3CCN(c4ccccc4)CC3)nn2)cc1
59	O=C1CCC(CCC(=O)N2CCCC(C(=O)c3ccc(Cl)cc3)C2)=NN1 (stereo not given)
60	CCN(CC(=O)Nc1c(F)cccc1F)C(=O)COc1cccc2c1OC(C)(C)C2
Assay by compound	57	58	59	60
LANA-H2A inh	2.4	0.4	-4.7	-0.5
B2AR ag	-2	7	1	5
ALR inh	1	-40	nt	-15
HNF4A DNA FP	3.8	-4.5	-1.6	-87
Vif A3G	nt	-23%	17%	6%
RanGTP-Impb inh	5.4	0.7	-3.4	0.6
Calb FLC	3	-7	-1	6

Structures above containing an aryl thioether with sulfur outside any ring:
16	CCOc1ccc2nc(SC3CC(=O)N(c4ccc(OC)cc4)C3=O)sc2c1 (stereo not given)
27	Cc1cc2c(c(SCC(=O)NCc3ccccc3Cl)n1)C(=O)OC2
32	Cc1cccc(Nc2nc(N)nc(CC(=O)CSc3ccc(Cl)cc3)n2)c1
35	Cn1cnnc1SCC(=O)Nc1ccc(N2CCOCC2)cc1
41	COc1cccc(NC(=O)CSc2nc(N)cc(N)n2)c1
42	CCOC(=O)CSc1nc(N)c(C#N)c(CC(C)C)c1C#N
58	COc1ccc(-c2ccc(SCC(=O)N3CCN(c4ccccc4)CC3)nn2)cc1
Assay by compound	16	27	32	35	41	42	58
LANA-H2A inh	0.3	-7.0	nt	0.3	-0.3	-2.4	0.4
B2AR ag	10	-1	nt	-1	-1	14	7
ALR inh	2	0	nt	96*	10	-3	-40
HNF4A DNA FP	-3.7	1.9	nt	-2.6	-4.8	-1.2	-4.5
Vif A3G	-2%	7%	?	-2%	4%	-63%	-23%
RanGTP-Impb inh	?	?	4.7	0.4	3.0	?	0.7
Calb FLC	3	-7	6	8	0	12	-7
